# INS promoter inh: TRM-6 insulin promoter activity inhibition | AID 1273 | inhibition, % at 2 µM | 130,000 tested, 0.9% active | TRM-6 cells (human fetal islet line), insulin promoter-eGFP reporter, imaging; reporter expression induced with tamoxifen;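 active means inhibition above the mean plus 3 SD, with well images judged a real hit on visual review, cut at about 60% in these data, passing the limit was not always enough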
# GALR2 ag: agonists of human galanin receptor 2 (GALR2) | O43603 | GALR2-expressing cells, agonist activation read-out | activation, %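 (tested at 5 µM)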 | 140,000 tested, 0.48% active | AID 803;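 active means above mean plus 3 SD of all compounds, about 5% in these data, not always enough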;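 further: 0% = vehicle buffer wells and 100% = reference agonist at full effect; tested in CHO reporter cells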
# Target sequence (O43603 whole entry, looked up): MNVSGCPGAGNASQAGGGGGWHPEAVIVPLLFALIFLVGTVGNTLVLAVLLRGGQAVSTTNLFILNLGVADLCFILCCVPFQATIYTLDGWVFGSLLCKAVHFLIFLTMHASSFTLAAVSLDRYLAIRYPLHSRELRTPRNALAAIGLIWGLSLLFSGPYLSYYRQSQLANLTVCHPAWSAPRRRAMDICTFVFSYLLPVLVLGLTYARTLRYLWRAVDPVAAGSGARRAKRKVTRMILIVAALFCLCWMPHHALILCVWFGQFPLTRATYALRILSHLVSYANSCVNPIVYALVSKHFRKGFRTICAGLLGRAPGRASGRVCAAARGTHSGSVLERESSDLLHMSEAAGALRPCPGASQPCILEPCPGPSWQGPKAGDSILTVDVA
# RGS16-Gao HTS: regulators of human RGS16-Galphao interaction. AID 1441. O15492+P09471. binding response (% of control), % at 10 µM. bead-based flow cytometry RGS16-Galphao binding, fluorescence; actives lie on both sides. 220,000 tested, 0.38% active;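 active means below 25% or above 175%, edge rows of some plates excepted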;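 further: Galphao activated by GDP with aluminum fluoride before binding; 100% = wells without compound and 0% = beads without RGS; some results beyond the cut were filed as inactive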
# Target sequence (O15492 whole entry, looked up): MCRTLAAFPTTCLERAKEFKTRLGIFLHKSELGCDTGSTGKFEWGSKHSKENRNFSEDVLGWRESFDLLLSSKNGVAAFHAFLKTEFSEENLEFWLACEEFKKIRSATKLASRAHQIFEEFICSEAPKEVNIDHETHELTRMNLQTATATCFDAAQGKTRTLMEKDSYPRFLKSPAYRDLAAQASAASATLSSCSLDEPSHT
# Target sequence (P09471 whole entry, looked up): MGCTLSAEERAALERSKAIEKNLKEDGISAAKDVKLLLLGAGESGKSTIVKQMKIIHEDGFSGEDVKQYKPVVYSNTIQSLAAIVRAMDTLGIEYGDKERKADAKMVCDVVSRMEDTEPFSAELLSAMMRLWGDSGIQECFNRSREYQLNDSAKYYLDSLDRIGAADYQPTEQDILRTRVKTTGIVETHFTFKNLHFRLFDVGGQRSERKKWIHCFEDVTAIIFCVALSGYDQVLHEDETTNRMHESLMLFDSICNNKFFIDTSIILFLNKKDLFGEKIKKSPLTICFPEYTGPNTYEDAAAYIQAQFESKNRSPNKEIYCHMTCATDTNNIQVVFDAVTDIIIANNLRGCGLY
# PKD1 kinase inh: blocks activity of human protein kinase D1 | 200,000 tested, 0.056% active | inhibition, %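 (about 10 µM by stock and volumes)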 | PKD1 kinase fluorescence polarization assay | Q15139;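 active means inhibition of 50% or more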;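 further: controls were vehicle for no effect and a reference inhibitor for full effect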
# HSV augment: HSV replication enhancement | maximum fold increase | 220,000 tested, 0.005% active | AID 1956 | HSV replication augmentation in cells, fold increase;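 active means peak rise of 1.5-fold or more in the series; tested in PC3 cells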;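 further: first round at 10 µM; read as green reporter fluorescence; hits show the peak of a series up to 25 µM; 1 = signal of infected wells without compound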
# INS promoter inh cell count: second read-out of INS promoter inh, no call of its own (marks repeat the call); normalized cell count, %; measured here: cell count, toxicity; reference of the scale not given here;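 cells exposed to compound for 48 h; stained nuclei by imaging scaled within each plate; lower means fewer cells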
# HSV augment primary fold: also measured in HSV augment; calls as there; fold increase; compound at 10 µM; measured here: primary screen fold increase 10 uM; tested in PC3 cells;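 GFP signal in the first replicate; 1 = infected wells without compound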
# Starred values were filed as active, the others as inactive; i = inactive; nt = not tested or not shown; [ ] = dose if it differs, or a comment.
SMILES,INS promoter inh,INS promoter inh cell count,GALR2 ag,RGS16-Gao HTS,PKD1 kinase inh,HSV augment,HSV augment primary fold
Cc1ccccc1C1CCCN(Cc2nc(C3CC3)no2)C1 (centres undefined),nt,nt,nt,101,1,i,1.1
CCCCCCCCC(=O)NCCOc1ccc(OC)cc1,12,130,-2.8,101,-16,i,0.92
NC(=O)COC(=O)CSc1ccc2ccccc2c1,nt,nt,nt,100,0,i,0.97
C=CCOC(=O)C1=C(C)NC(SCC(=O)NC(=O)OCC)=C(C#N)C1c1cccnc1 (centres undefined),nt,nt,0.9,92,4,i,1
O=C(CCS(=O)(=O)Cc1ccccc1)NCc1ccco1,0,226,-1.5,100,0,i,0.94
Cc1ccc(-n2cc(CNCCN3CCOC3=O)c(-c3cccc(C)c3)n2)cc1,27,118,nt,103,-1,i,0.95
COc1cccc(NC(=O)C2CC(=O)N=C(N)S2)c1 (centres undefined),0,115,-4.1,100,-3,i,0.75
O=C(CSc1ccc(F)cc1)Nc1ccccc1Br,49,148,nt,102,5,i,0.9
COc1ccc(C2C=C(c3ccccc3)Nc3nc(CCCO)nn32)cc1 (centres undefined),24,90,-0.4,99,-8,i,0.97
OCCCNc1nc(-c2ccc(Cl)cc2)nnc1-c1ccc(Br)cc1,-15,113,-0.8,37,-12,i,0.76
CC(C)CCOCC(=O)Nc1cccc(C(=O)O)c1,-12,102,-2.3,95,-12,i,1.1
COc1cccc(NC(=O)C2C3CC4OC(=O)C2C4C3)c1 (centres undefined),14,109,-4.3,101,-1,i,1
N#Cc1cnn2ccc(-c3cc(N4CCOCC4)ccc3[N+](=O)[O-])nc12,nt,nt,nt,97,-1,i,0.88
Cc1ccc2nc(-c3ccc(NC(=O)COC(=O)c4ccc(Br)o4)cc3)sc2c1,nt,nt,1.3,101,-3,i,0.7
COC(=O)c1cc(NC(=O)CC2SCCNC2=O)cc(C(=O)OC)c1 (centres undefined),-12,93,-2.0,103,-2,i,0.93
O=C(NCC(O)CO)c1ccc2[nH]c3ccccc3c2c1 (centres undefined),-306,66,-1.2,75,-6,i,0.82
CCOC(=O)N/N=C/c1ccc(OCCSc2ccc(Cl)cc2)c(OCC)c1,nt,nt,0.0,111,-1,i,0.88
CCn1nnc2sc3c(c2c1=O)CCC(C)C3 (centres undefined),78*,98*,-1.5,97,-9,i,0.98
O=C(CSc1ncn[nH]1)NCc1ccc2c(c1)OCO2,nt,nt,nt,100,0,i,1
COc1cccc(-c2nnc(SCC(=O)N(C(C)C)C(C)C)o2)c1,-31,114,-1.3,107,-11,i,0.85
CS(=O)(=O)c1sc(C(=O)NC(=S)Nc2ccc(OC(F)(F)F)cc2)c2c1C=CCC2,nt,nt,nt,108,nt,i,1.1
Cc1ccc(CS(=O)(=O)Cc2ccc(C(=O)NCc3ccco3)o2)cc1,-38,140,-2.9,95,-7,i,0.97
Cc1cc(C(=O)COC(=O)c2n[nH]c3ccccc23)c(C)n1C,-35,156,-0.8,98,-11,i,0.88
CC(C)Oc1ccc(CNC(=O)Cn2c(=O)oc3ccccc32)cc1,nt,nt,-3.7,103,-1,i,0.94
O=c1c2c3c(sc2nc2sc(C4CC4)nn12)CCCC3,56,116,-1.5,101,-3,i,0.88

# (cont.)
SMILES,INS promoter inh,INS promoter inh cell count,GALR2 ag,RGS16-Gao HTS,PKD1 kinase inh,HSV augment,HSV augment primary fold
Cc1oc2c(c1C(=O)Nc1cccc(C(=O)O)c1)CCCC2,66*,121*,-0.9,107,-3,i,0.89
COc1ccc(NS(=O)(=O)/C=C/c2ccccc2)cc1,23,110,-1.3,101,-2,nt,nt
Cn1c2ccccc2c(=O)c2c(=O)n(C3CCCCCC3)c(C3CCCCC3)nc21,nt,nt,1.1,108,-9,i,0.93
Cc1nc2cc(-c3ccc(Cl)cc3)nn2c(C)c1CCC(=O)NC(C)c1ccc2c(c1)OCCO2 (centres undefined),5,107,0.8,101,2,i,0.68
CCn1c(CNS(=O)(=O)c2ccc(Cl)cc2)n[nH]c1=S,12,82,nt,101,11,i,0.97
COc1ccccc1NC(=O)c1cc(C)nc2ccccc12,nt,nt,nt,101,-9,i,0.99
COCCCNC(=O)C1CC(=O)N(C2CCCC2)C1 (centres undefined),-19,122,-1.2,104,-11,i,1.1
COc1ccccc1Nc1n[nH]c(=S)s1,nt,nt,nt,95,2,i,0.91
CCCC(=O)Nc1nc(C(=O)OCC)cs1,-14,156,-3.3,96,-1,i,0.88
Cc1cc2[nH]c(=S)[nH]c2cc1C,11,147,0.8,85,4,i,0.85
CCOC(=O)/C(=C\C=C\N1CCOCC1)C(C)=O,-13,98,nt,111,-4,i,0.99
CC(=O)c1ccc(NC(=O)C(C)OC(=O)c2ccc3c(c2)nc(C)n3-c2ccccc2)cc1 (centres undefined),nt,nt,-1.6,219*[activator],-6,i,1
Cc1ccc2c(N)c(C(=O)c3ccccc3)sc2n1,nt,nt,nt,104,nt,i,0.86
O=C(COc1ccc(-n2cnnn2)cc1)N1CCN(c2ccc(F)cc2)CC1,25,89,-1.0,107,-6,i,0.93
NC(=O)CSc1nnc(-c2cccc(S(=O)(=O)N3CCOCC3)c2)n1C1CCCCCC1,-26,77,-0.4,95,1,i,1
CCCOC(=O)Nc1cc(OC)c(Cl)cc1OC,-273,42,-1.0,100,-9,nt,nt
CCC(CO)NCCNC(CC)CO (centres undefined),15,123,-2.7,-120,1,i,0.86
Cc1nnc(NC(=O)C2(c3ccccc3)CCOCC2)s1,-10,144,0.0,102,6,i,1
COc1ccc(Cn2c(=O)sc3ccccc3c2=O)cc1,27,114,nt,99,2,i,0.98
O=c1oc(/C=C/c2ccccc2)nc2ccccc12,36,76,nt,99,2,i,1.1
O=c1[nH]cnc2ccsc12,23,88,nt,102,-2,i,0.84
CC(=O)c1ccc(-c2nnc(CCC(=O)N(C)Cc3cccc4cnccc34)o2)s1,nt,nt,nt,88,-1,i,1
O=C(CSc1ccccc1)Nc1cccc(S(=O)(=O)N2CCCC2)c1,nt,nt,-0.1,101,7,i,1.1
Cc1ccc(NC(=O)Nc2c(Cl)cccc2Cl)cn1,nt,nt,nt,106,nt,i,0.84
c1cc2[nH]snc2c2nc(C3CC3)nc12,64,117,-2.1,95,32,i,0.61

# Arranged by number of heavy atoms (high to low): part of the list above
SMILES,INS promoter inh,INS promoter inh cell count,GALR2 ag,RGS16-Gao HTS,PKD1 kinase inh,HSV augment,HSV augment primary fold
Cc1nc2cc(-c3ccc(Cl)cc3)nn2c(C)c1CCC(=O)NC(C)c1ccc2c(c1)OCCO2 (centres undefined),5,107,0.8,101,2,i,0.68
O=C(COc1ccc(-n2cnnn2)cc1)N1CCN(c2ccc(F)cc2)CC1,25,89,-1.0,107,-6,i,0.93
COc1ccccc1NC(=O)c1cc(C)nc2ccccc12,nt,nt,nt,101,-9,i,0.99
Cc1nnc(NC(=O)C2(c3ccccc3)CCOCC2)s1,-10,144,0.0,102,6,i,1
CCn1c(CNS(=O)(=O)c2ccc(Cl)cc2)n[nH]c1=S,12,82,nt,101,11,i,0.97
Cc1ccc(NC(=O)Nc2c(Cl)cccc2Cl)cn1,nt,nt,nt,106,nt,i,0.84
CCOC(=O)/C(=C\C=C\N1CCOCC1)C(C)=O,-13,98,nt,111,-4,i,0.99

# Remaining list, next part
SMILES,INS promoter inh,INS promoter inh cell count,GALR2 ag,RGS16-Gao HTS,PKD1 kinase inh,HSV augment,HSV augment primary fold
Cc1ccc(S(=O)(=O)N2CCCOC2)cc1,-22,88,-0.5,110,-2,i,1.2
Cc1ccc2c(c1)N(CC(=O)NC1CCCCC1C)C(=O)CO2 (centres undefined),nt,nt,-3.9,24,-5,i,0.98
COc1ccc(OC)c(S(=O)(=O)NCCc2cn3ccsc3n2)c1,nt,nt,-0.6,103,2,i,0.89
COc1ccccc1N1CCN(c2ccc([N+](=O)[O-])nc2)CC1,-8,184,nt,104,-4,i,0.99
C=CCNC(=S)Nc1nc2c(cc1C(=O)OCC)COC(C)(C)C2,nt,nt,nt,99,nt,i,1.2
C/C(=N\NC(=O)c1nn(C)c(C)c1Br)c1cccc(NC(=O)c2ccc(F)cc2)c1,nt,nt,-1.2,253*[activator],6,i,0.83
O=C(COC(=O)C1=COCCO1)Nc1ncc(C(F)(F)F)cc1Cl,21,92,-2.6,99,-7,i,0.9
CC/C(CC(=O)C(F)(F)F)=N\NC(=O)/C(C#N)=C/N(C)C,nt,nt,nt,103,4,i,1
CC(C)Cn1c(N)c(C(=O)COC(=O)c2c(F)cccc2F)c(=O)n(C)c1=O,-27,150,nt,110,-5,i,0.91
O=C(CN1CCN(Cc2ccccc2Cl)CC1)N/N=C/C=C/c1ccco1,nt,nt,nt,99,nt,i,1.1
COc1ccc(/C=C/C(=O)Oc2cccc(/C=N/NC(=O)c3cccc(F)c3)c2)cc1,-24,96,-0.6,101,-12,i,0.89
CCc1cc2cc(C)cc(C)c2nc1SCC(=O)N1CCN(C(=O)c2ccco2)CC1,21,109,-2.6,98,-7,i,0.85
CCOC(=O)Cn1c(SC)nc2sc3c(c2c1=O)CC(C)(C)OC3,-18,109,-1.2,104,-7,i,0.78
O=C(CCN1CCc2ccccc2C1)Nc1cccc(F)c1,-37,115,0.1,104,-2,i,0.91
FC(F)(F)c1cnc2c(c1)Nc1ccccc1S2,-6,62,-0.3,104,-9,i,0.88
C(=N\n1cnnc1)/c1cccc(Oc2ccccc2)c1,nt,nt,-2.1,49,-3,i,0.88
CCOC(=O)c1ccc(N/C=C/C(=O)c2ccccc2)cc1,-20,188,nt,107,-8,i,0.94
O=C(CN1CCSCC1)N/N=C/c1ccc(F)cc1F,-6,56,-0.9,103,1,i,0.91
O=C(Nc1ccc(N2CCOCC2)c(Cl)c1)c1ccccc1Cl,nt,nt,nt,109,3,i,1
CC(C)(C)NCCCCOc1ccccc1F,-18,137,-0.1,104,-5,i,1
COCCNC(=O)C1CC(=O)N(CCc2ccccc2)C1 (centres undefined),40,55,-2.2,99,-12,i,1
CSc1ccc(CN2CCC(O)CC2)cc1,8,84,-1.9,nt,-10,nt,nt
COc1cccc(/C=C/C(=O)c2ccc(C)c([N+](=O)[O-])c2)c1,30,116,-0.1,101,-6,i,0.8
O=C(CS(=O)c1cccc(Cl)c1)Nc1ccccc1Cl (centres undefined),-50,117,-2.2,76,-10,i,0.81
CCOC(=O)c1ccc(NS(=O)(=O)CC)cc1,10,107,-4.0,103,-7,i,0.87

# Complete entries, quoted from the list. Screens in order: INS promoter inh, INS promoter inh cell count, GALR2 ag, RGS16-Gao HTS, PKD1 kinase inh, HSV augment, HSV augment primary fold
# COc1ccc(/C=C/C(=O)Oc2cccc(/C=N/NC(=O)c3cccc(F)c3)c2)cc1 is listed with -24, 96, -0.6, 101, -12, i, 0.89
# COc1cccc(/C=C/C(=O)c2ccc(C)c([N+](=O)[O-])c2)c1 is listed with 30, 116, -0.1, 101, -6, i, 0.8

# The main list resumes, starting 3 compounds before the break.
SMILES,INS promoter inh,INS promoter inh cell count,GALR2 ag,RGS16-Gao HTS,PKD1 kinase inh,HSV augment,HSV augment primary fold
COc1cccc(/C=C/C(=O)c2ccc(C)c([N+](=O)[O-])c2)c1,30,116,-0.1,101,-6,i,0.8
O=C(CS(=O)c1cccc(Cl)c1)Nc1ccccc1Cl (centres undefined),-50,117,-2.2,76,-10,i,0.81
CCOC(=O)c1ccc(NS(=O)(=O)CC)cc1,10,107,-4.0,103,-7,i,0.87
O=C(COc1ccc(C(F)(F)F)cc1[N+](=O)[O-])Nc1cccc(C(F)(F)F)c1,-17,101,-1.0,98,11,i,1.1
Cc1cc(C(=O)CN2C(=O)c3ccccc3S2(=O)=O)c(C)n1-c1ccccc1,18,179,-1.1,107,0,i,0.66
O=C(O)CSc1c(-c2ccccc2)[nH]c2ccccc12,60,66,-1.7,-3.1*,-3,i,0.99
COc1ccc(NC(=O)N(Cc2ccc3c(c2)OCO3)C2CC(=O)N(c3ccc(OC)cc3)C2=O)cc1 (centres undefined),-13,116,0.0,102,-6,i,0.97
CCOC(=O)c1sc(NC(=O)Cc2ccc(C)cc2)nc1C,nt,nt,nt,96,5,i,0.88
CCCSc1ccc2nc(-c3ccccc3)cn2c1,nt,nt,0.5,104,2,i,0.79
CCC(CC)NC(=O)c1cc2c(C)nn(Cc3ccccc3Cl)c2s1,-5,87,-0.2,100,-2,i,0.91
O=c1[nH]cnc2c1cnn2Cc1ccccc1,nt,nt,-2.9,77,1,i,1.1
CC1CCN(S(=O)(=O)c2ccc(C(C)C)cc2)CC1,23,126,nt,102,-5,i,0.86
O=C(CCn1nnc(-c2cccs2)n1)NC1CCCCC1,7,124,-1.6,98,-2,i,1.1
CC1CCN(c2ccc([N+](=O)[O-])cc2C(=O)O)CC1,27,139,0.1,107,-5,i,0.65
